High-throughput results: PubChem BioAssay, several laboratories
Autofluor counter: counter-screen for toxin protease inhibitors: compound fluorescence. compound autofluorescence counterscreen, microsphere flow cytometry; stronger effect = higher value. fluorescence intensity (test concentration not listed). 360,000 tested, 3.1% active;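 active means at least 3 SD above the mean of all compounds, about 16000 in these data; inconclusive means too few beads counted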;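 further: 100 nL of 1 mM stock went into each well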
Sa ugtP lethal: growth inhibition of ugtP-null S. aureus, primary screen, RN4220 ugtP deletion, OD600 | AID 1259309, 2017 | growth inhibition, % (concentration not given with the values) | 330,000 tested, 0.54% active | 16 h; some inactives read as strong as hits;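 active means z-score under -3 and OD600 up to 0.15 on both plates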;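 further: plate controls were untreated wells for no effect and antibiotic for full effect; wells of about 80 µL received 100 nL stock; the first replicate is given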
PrP UTR inh: inhibition of PrP 5' UTR reporter expression; inhibition, % (test concentration not listed); cell-based PrP 5' UTR mRNA reporter, plate reader; 340,000 tested, 0.35% active; AID 488862, 2010;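 active means every replicate at 50% or more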;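 further: 0 = median of the neutral control wells; tested in H4 reporter cells; numbers are from one replicate; inactives centre near -14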
Mtb hypoxia inh: PubChem AID 1159583; 300,000 tested, 0.1% active; M. tuberculosis hypoxia-regulated fluorescent reporter, fluorescence; fluorescence inhibition, % (concentration not given with the values);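 active means 35 to 45% if threefold the growth effect, above 45% if 1.5-fold the growth effect; inactive means the rest, general growth blockers included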;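 further: wells of about 50 µL received 100 nL stock; 0% = vehicle wells and 100% = reference inhibitor wells; whole bacteria with a GFP reporter of the hypoxia response; strong numbers were not always called active; many hits fall short of the cut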
Sa RN4220 lethal: growth inhibition of S. aureus RN4220, primary screen, OD600 | 16 h | inhibition, % (test concentration not listed) | 330,000 tested, 0.33% active | AID 1259311, 2017;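 active means z-score of -3 or lower and OD600 up to 0.18 on both plates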;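 further: plate controls were untreated cells for no effect and reference antibiotic for full effect; stock transfer was 100 nL into about 80 µL; one replicate is shown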
BJeLR lethal: MLPCN primary cell-based screen for lethality selective to Ras in HRASV12 cells | AID 1554, 2009 | BJeLR (HRASV12) viability, CellTiter-Glo ATP luminescence, 48 h; reference of the scale not given here | 300,000 tested, 0.17% active | inhibition, % (test concentration not listed);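 active means replicate mean above 50%; inconclusive means above 50% but judged a plate artefact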;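 further: 50 nL library stock added to about 25 µL; numbers are from one replicate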
Mtb hypoxia inh growth: also measured in Mtb hypoxia inh; calls as there; growth inhibition, %; measured here: M. tuberculosis growth (absorbance);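 0% = vehicle and 100% = reference antibiotic; read after six days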
* = called active by the depositor; ? = inconclusive; / = not tested or not shown.

Values run as follows: Sa RN4220 lethal	Mtb hypoxia inh	BJeLR lethal	Autofluor counter	Mtb hypoxia inh growth	Sa ugtP lethal	PrP UTR inh
1	COc1cccc2c1OCC/C2=N\NC(=O)C(C)Oc1ccc([N+](=O)[O-])cc1 (stereo unspecified)
 : /	/	5	4624	/	/	-19
2	Cc1cc(NC(=O)CSc2nnc(C3COc4ccccc4O3)n2N)no1 (stereo unspecified)
 : 8.0	12	3	4358	10	9	-10
3	COc1ccccc1CN1[C@@H](CC(=O)O)c2ccccc2S1(=O)=O
 : /	/	2	3657	/	/	0
4	CCOCCCNC(=O)C1CC(=O)N(CCc2ccc(C)cc2)C1 (stereo unspecified)
 : 1.8	-4	2	3497	-5	-3	-10
5	CCCCn1c(SCC(=O)Nc2ccc(OC)cc2)nc2ccc(N3CCOCC3)cc2c1=O
 : 0.5	9	-3	?	3	0	-15
6	O=C(CCC1CCCC1)NNC(=O)c1cccc(Cl)c1
 : -1.8	1	-17	5772	4	2	0
7	CC(=O)Nc1ccc(-c2csc(Nc3cc(C)ccn3)n2)cc1
 : -4.4	-16	5	5002	3	7	-46
8	CCOC(=O)C1(C)/C(=N/Nc2ccccc2)C(=O)C(=O)N1c1ccccc1 (stereo unspecified)
 : 3.2	0	6	4604	-3	-3	-27
9	CC12CN3CCN(CC(C3)C1(O)CN1CCCCC1)C2 (stereo unspecified)
 : 0.6	/	-1	2531	/	-2	-23
10	Cc1n[nH]c(=S)n1/N=C/c1cccc(OCc2ccccc2)c1
 : /	/	-5	2686	/	/	-9
11	O=C(Nc1cccc2ccccc12)c1cnccn1
 : 7.8	12	-12	2985	13	2	-44
12	CC(=O)N1CC(=O)N(c2ccccc2)C1=O
 : 4.1	6	-2	3363	3	4	-11
13	CC(C)(C)C(=O)NCCc1nc(-c2ccccc2)no1
 : 5.3	5	4	4182	4	-9	0
14	COc1ccc(C(=O)N(C)C(C)c2ccon2)cc1OC1CCN(C(C)C)CC1 (stereo unspecified)
 : -0.5	-13	-8	5649	-6	-6	2
15	COc1ccc(C2/C=C\CN(CC(C)C)CC(=O)N2Cc2ccc(F)cc2)cc1 (stereo unspecified)
 : /	/	-1	4618	/	/	8
16	COC(=O)c1ccccc1-c1ccc(C=NNC(=O)c2cc3ccccc3o2)o1
 : 3.1	6	/	/	-1	-18	/
17	CCOc1ccc(NC(=O)CCN2CCCCC2)cc1
 : -1.8	4	-4	11542	8	-1	-20
18	COc1ccc(-n2c(C)cc(/C=C3/SC(=O)N(CC(=O)N4CCOCC4)C3=O)c2C)cc1
 : 0.9	3	1	9771	-2	-4	-11
19	COC(=O)c1ccc(-c2nc(CN3CCCN(C(=O)c4ccco4)CC3)c(C)o2)cc1
 : 0.0	0	-1	6002	-3	0	-35
20	CCOC(=O)N1CCN(S(=O)(=O)c2ccc(C(=O)Nc3nnc(C4CC4)o3)cc2)CC1
 : 14	-1	6	2595	1	6	-12
21	Cc1nnc(Sc2cc(C(=O)NC3CC3)c3ccccc3n2)s1
 : 2.2	-5	-9	4685	4	13	-6
22	CCCn1nc(NC(=O)c2cccs2)c2cc3cccc(C)c3nc21
 : 0.0	1	12	6221	8	-29	/
23	COc1ccc(S(=O)(=O)N2CCN(C(=O)C3CC3)CC2)cc1
 : 1.8	-14	-1	3585	8	3	-5
24	COC(=O)c1c(NC(=O)CCN2CCOCC2)sc2c1CCCC2
 : 3.1	11	3	5563	9	12	-8
25	O=C(c1sccc1Cl)N1CCN(Cc2ccc3c(c2)OCO3)CC1
 : 1.3	13	6	4262	5	6	-49
26	O=C(Cc1cccc2ccccc12)OCn1nnc2ccccc2c1=O
 : -0.8	5	9	6290	8	-5	-6
27	CCOc1ccc(-n2c(=O)c3c4c(sc3n(CC(=O)NCc3ccco3)c2=O)CCC4)cc1
 : 1.6	/	-2	4779	/	-2	-13
28	Cc1cc2nc(-c3ccc(SCC(=O)N4CCc5ccccc54)nc3)[nH]c2cc1C
 : 17	6	10	9552	13	-14	-131
29	O=C(NCCC(=O)N1CCN(S(=O)(=O)c2ccccc2F)CC1)Nc1ccccc1
 : -1.9	12	/	8999	10	0	-9
30	CCc1ccc(S(=O)(=O)NCc2csc(-c3cccnc3)n2)s1
 : -4.6	3	-2	5031	2	-7	-13
31	CC(C)[C@H](Nc1nc(-c2ccccc2)nc2c1oc1ccccc12)C(=O)O
 : /	/	3	2839	/	/	-21
32	Cc1cc(C)n(-c2nc(NCCN(C)C)c3c4c(sc3n2)CCCC4)n1
 : -5.4	/	6	4654	/	-27	17
33	O=C(/C=C/c1ccc(Cl)c([N+](=O)[O-])c1)Nc1cccc(NC(=O)c2ccco2)c1
 : /	/	-8	2003	/	/	-4
34	CCOC(=O)CNC(=O)C(CC(C)C)NC(=O)C1CCCCC1 (stereo unspecified)
 : 1.8	17	3	4066	9	-4	-23
35	CN(C)c1nc2c(cnn2C)c(=O)[nH]1
 : 4.0	-4	/	3705	3	3	-1
36	O=C(CN1C(=O)C(=O)N(C2CCCC2)C1=O)NCCc1ccc(Cl)cc1Cl
 : 0.7	-2	/	5360	-6	3	-6
37	O=C(c1ccccn1)N1CCN(S(=O)(=O)c2cccc(Br)c2)CC1
 : 4.6	4	/	4252	0	2	-9
38	Cc1ccc(-c2nnc(Nc3ccc4c(c3)OCO4)c3ccccc23)cc1S(=O)(=O)NCCO
 : 1.7	4	6	2065	2	3	-17
39	Cc1ccc(CNC(=O)Nc2ccccc2)cc1
 : -2.7	/	1	/	/	-2	-80
40	Cc1ccc(CSc2nnc(SCC(=O)N/N=C/C=C/c3ccccc3[N+](=O)[O-])s2)cc1
 : /	/	-5	1917	/	/	-18
41	CCOc1ccc2c(C)c(C(=O)O)oc2c1OCC
 : -2.3	1	0	3949	1	-4	-12
42	CN(CC(=O)Nc1cccc(F)c1)C(=O)Cn1cnc2c1c(=O)n(C)c(=O)n2C
 : 6.1	8	-5	4907	-3	5	-10
43	COc1cc(F)ccc1CN1CCC(C(=O)Nc2ccc(Oc3ccccc3)nc2)CC1
 : 2.9	4	7	6119	0	6	-8
44	CCOC(=O)c1sc(NC(=O)Nc2ccc(Cl)cc2)cc1C
 : /	/	-3	4698	/	/	-51
45	COc1cccc(CN2CC(C(=O)NCCCc3ccc(C)cc3)CCC2=O)c1 (stereo unspecified)
 : -2.0	15	13	6604	5	10	-10
46	CC(C)(C)C(=O)Nc1ccccc1N1CCN(C(=O)c2ccc(Cl)cc2)CC1
 : -2.4	/	-3	4044	/	1	-9
47	O=C(NN=Cc1ccc(N(CCCl)CCCl)cc1)C(=O)c1c[nH]c2ccccc12
 : 3.1	9	/	4317	11	-1	-21
48	CC1CC(C)CN(CCCNC(=O)CN2C(=O)CSc3ccc(S(=O)(=O)N4CCCCC4)cc32)C1 (stereo unspecified)
 : -5.4	-9	1	5568	-7	-5	-8
49	O=C(CNC(=O)c1ccccc1C(F)(F)F)N/N=C/c1cccs1
 : /	/	0	4377	/	/	-13
50	COc1ccc(Br)cc1C(=O)Nc1cccc(C)c1
 : -1.8	/	-5	2566	/	6	-24
51	COC(=O)c1cc2ccsc2n1Cc1cc(=O)n2ccccc2n1
 : 0.4	1	-1	9048	2	6	-10
52	COC(=O)c1cc(NC(=O)CSc2nnc(CN3CCOCC3)n2C)ccc1Cl
 : 4.3	/	1	2758	/	-1	-45
53	CC(C)Sc1nc2c(c(=O)[nH]1)C(c1cccs1)C1=C(CC(C)(C)CC1=O)N2 (stereo unspecified)
 : 0.0	3	3	6049	7	11	-23
54	COc1ccc(OCCCC(=O)N(C)CC(=O)Nc2c(C)cccc2C)cc1
 : -1.4	-8	-5	4589	-7	-1	-3
55	O=C(Nc1ccccc1F)c1ccc(-c2cccc([N+](=O)[O-])c2)o1
 : 3.6	-5	-3	4961	-5	-5	-22
56	CCOC(=O)c1ccc(NC(=O)CSc2nc(SC)ns2)cc1
 : -9.3	/	1	2505	/	-8	-53
57	COc1ccc(S(=O)(=O)NC(CC(=O)NCCc2ccc(OC)c(OC)c2)c2ccco2)cc1 (stereo unspecified)
 : -4.3	/	5	2730	/	2	-60
58	Fc1ccc2nc(Nc3nc4c(s3)CCCC4)sc2c1
 : -2.9	8	6	3624	4	-5	-140
59	CCn1c(-c2ccccc2O)n[nH]c1=S
 : -1.0	-8	16	8582	2	-3	-14
60	O=C(NCCNC(=O)c1ccccc1Br)c1ccccc1Br
 : 2.1	9	2	/	4	2	-2

Next section:
Values run as follows: Sa RN4220 lethal	Mtb hypoxia inh	BJeLR lethal	Autofluor counter	Mtb hypoxia inh growth	Sa ugtP lethal	PrP UTR inh
61	CC1(C)CC(=O)C(C=NCCN2CCN(C(=O)c3ccc(F)cc3)CC2)=C(O)C1
 : 8.2	5	-16	3277	4	12	-5
62	C=CCN1C(=O)C2(C(C(=O)OCC)=C(N)Oc3c2c(=O)oc2ccccc32)c2ccccc21 (stereo unspecified)
 : 7.0	-59	-12	4116	1	0	-17
63	CN1C(=O)/C(=C\c2ccc(OC(=O)c3ccco3)cc2)SC1=S
 : 6.5	10	-7	4773	-7	-1	-37
64	COc1ccc(NC(=O)C2CCCN2C(=O)NCc2ccccc2)c(OC)c1 (stereo unspecified)
 : 6.6	12	-1	9870	5	-1	-8
65	CN(CCNC(=O)c1ccc(CS(=O)(=O)c2c(Cl)cccc2Cl)o1)CCc1ccccc1
 : 5.6	17	10	6691	4	2	-7
66	Cc1ccc(S(=O)(=O)N2CCCCC2)cc1NC(=O)CCCOc1ccccc1
 : 1.5	6	/	6438	16	5	-20
67	CC(C)CCNC(=O)C1CCC(CNS(=O)(=O)c2cccc3nsnc23)CC1 (stereo unspecified)
 : 0.6	5	-2	5295	3	1	-13
68	COc1ccc(-c2nnc(SC3CCOC3=O)n2C2CCCCC2)cc1OC (stereo unspecified)
 : 5.1	9	-2	13710	9	-3	/
69	CC1(C2CCC3C4CCC5CC6(CCC5(C)C4C(=O)CC32C)OCCO6)OCCO1 (stereo unspecified)
 : 8.0	5	/	3005	2	13	-1
70	COCCNC(=O)C(=O)NCC1OCCN1S(=O)(=O)c1cccs1 (stereo unspecified)
 : 4.2	5	8	4583	-3	-9	3
71	CSc1ccccc1NC(=O)Cc1ccc(Br)cc1
 : 11	8	-8	1997	14	8	-14
72	CCC(C)N1CC23C=CC(O2)C(C(=O)OC)C3C1=O (stereo unspecified)
 : 1.1	/	-12	6281	/	2	-22

Compound profiles, from the list above.
C=CCN1C(=O)C2(C(C(=O)OCC)=C(N)Oc3c2c(=O)oc2ccccc32)c2ccccc21 (stereo unspecified) in the list: Sa RN4220 lethal: 7.0; Mtb hypoxia inh: -59; BJeLR lethal: -12; Autofluor counter: 4116; Mtb hypoxia inh growth: 1; Sa ugtP lethal: 0; PrP UTR inh: -17
CC(C)CCNC(=O)C1CCC(CNS(=O)(=O)c2cccc3nsnc23)CC1 (stereo unspecified) in the list: Sa RN4220 lethal: 0.6; Mtb hypoxia inh: 5; BJeLR lethal: -2; Autofluor counter: 5295; Mtb hypoxia inh growth: 3; Sa ugtP lethal: 1; PrP UTR inh: -13
COc1ccc(NC(=O)C2CCCN2C(=O)NCc2ccccc2)c(OC)c1 (stereo unspecified) in the list: Sa RN4220 lethal: 6.6; Mtb hypoxia inh: 12; BJeLR lethal: -1; Autofluor counter: 9870; Mtb hypoxia inh growth: 5; Sa ugtP lethal: -1; PrP UTR inh: -8

No enrichment for hits. About 4% of those tested had a hit in this group.
